# NPR1 antag: human Npr1 receptor antagonism. AID 1347048. Potency, µM (doses to about 46.3 µM), inactives show at the highest dose activity change, negative = inhibition, actives largely listed as inhibitors. 1.6% of 76,000 active. HEK293 hNpr1 GloSensor cGMP, ANP-stimulated luminescence. P16066; active = well fitted inhibition curve with a large enough effect; inconclusive = small, poorly fitted or top-dose-only effect; inactive = no such curve, though single readings can be large or run the other way;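 note: nearly all actives have a fitted effect of over 60% in size; nearly all hits also lower the signal before the agonist is added; a reference antagonist and vehicle were the controls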
# Target sequence (P16066 whole entry, looked up): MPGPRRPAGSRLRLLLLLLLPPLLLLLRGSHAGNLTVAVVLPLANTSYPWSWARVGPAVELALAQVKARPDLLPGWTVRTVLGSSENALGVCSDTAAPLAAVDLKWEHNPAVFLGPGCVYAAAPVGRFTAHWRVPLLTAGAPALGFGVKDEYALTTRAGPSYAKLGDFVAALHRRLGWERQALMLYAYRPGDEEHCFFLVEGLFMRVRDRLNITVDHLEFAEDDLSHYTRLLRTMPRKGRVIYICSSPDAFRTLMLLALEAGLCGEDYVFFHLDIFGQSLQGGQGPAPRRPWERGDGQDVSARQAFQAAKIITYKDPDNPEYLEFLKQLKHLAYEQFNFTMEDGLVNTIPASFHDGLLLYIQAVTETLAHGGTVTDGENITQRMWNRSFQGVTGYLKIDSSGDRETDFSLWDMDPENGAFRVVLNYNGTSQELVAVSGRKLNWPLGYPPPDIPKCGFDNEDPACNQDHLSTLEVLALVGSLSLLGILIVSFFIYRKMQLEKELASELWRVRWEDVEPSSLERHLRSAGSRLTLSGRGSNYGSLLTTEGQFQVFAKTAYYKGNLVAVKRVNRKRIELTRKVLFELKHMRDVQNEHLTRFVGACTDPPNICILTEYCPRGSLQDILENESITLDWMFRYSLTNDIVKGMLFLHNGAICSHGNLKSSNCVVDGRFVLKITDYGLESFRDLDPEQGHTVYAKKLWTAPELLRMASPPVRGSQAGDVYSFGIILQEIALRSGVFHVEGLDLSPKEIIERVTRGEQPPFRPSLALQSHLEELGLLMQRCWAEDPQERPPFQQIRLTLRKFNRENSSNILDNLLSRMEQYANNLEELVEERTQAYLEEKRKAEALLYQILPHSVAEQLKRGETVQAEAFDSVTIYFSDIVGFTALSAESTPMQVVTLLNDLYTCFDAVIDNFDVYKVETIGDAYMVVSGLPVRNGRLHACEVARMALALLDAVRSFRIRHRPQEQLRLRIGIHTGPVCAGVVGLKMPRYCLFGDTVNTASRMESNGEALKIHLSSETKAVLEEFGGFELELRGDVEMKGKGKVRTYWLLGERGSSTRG
#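 HEK293 cells stably expressing human Npr1 and cGMP GloSensor pGS-40F, loaded 2 h with 2% GloSensor reagent, given compound 30 min at room temperature. Luminescence read before and 20 min after 0.1 nM hNppA.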
# * marks the source's active call; other numbers are inactive results; ? = inconclusive; & = joins results of further samples; [ ] = another dose, or the depositor's remark. % is set by controls: 0 for no effect and ±100 for the full control effect; potency is the fitted concentration of half-maximal effect. The list is partial (hit frequency here may not be typical).
NPR1 antag,structure
-4%,COc1ccccc1-c1nc2nccc(-c3ccsc3)n2n1
?,COc1ccc(-c2nc(C3CC(=O)N(c4ccc(F)c(Cl)c4)C3)no2)cc1 (centres undefined)
0%,COCc1nc2nccc(-c3ccccc3)n2n1
-8%[70.6 µM],Fc1ccc(CNC2(Cc3cc(-c4ccccn4)on3)COC2)cc1
-2%,CC1=C(C(=O)N(C)C)C(c2ccc(Cl)cc2)N2C(CC(=O)NCC3CCCO3)=CSC2=N1 (centres undefined)
-2%[70.6 µM],O=c1c2nc(-c3cccc(O)c3)ccc2ncn1Cc1ccccn1
0%,Cc1cn2nc(C(=O)N3CCC(NC(=O)Cc4ccc(Cl)cc4)CC3)cc2c(=O)[nH]1
2%,CC1CCN(c2ncncc2-c2nc(-c3ccccc3)no2)CC1
3%,CCC(C)NC(=O)Cn1nc2c(cc1=O)CCCCC2 (centres undefined)
11%,O=C(CCCn1ccnc1)N[C@@H]1COCC[C@@H]1OCc1cscn1
-9%,CN(C)c1ccc(CN[C@H]2CC(C)(C)[C@@H]3C[C@@](C)(O)CC[C@]23CCC(=O)NCCc2c[nH]c3ccccc23)cc1
2%,CC(=O)NCCc1ncc(C)n1C1CCCCC1
0%,CN1CCCCCCN(C(=O)NC2CCCCC2)CCC1=O
-2%,CC(=O)NCCNC(=O)[C@@H]1Cc2cn(Cc3c(C)noc3C)c3cccc(c23)[C@H](CC(C)C)N1
-1%,Fc1ccc(-c2nc3nccc(-c4ccsc4)n3n2)cc1Cl
5%,O=C(N[C@@H]1CN(Cc2cccc(F)c2)C[C@H]1CO)c1ccccc1
23%,O=C(c1nc(-c2cccc(C(F)(F)F)c2)c2cnccn12)N1CCCC1
0%,O=C(c1cccc(Cn2cccn2)c1)N1CCCC(OCc2cccnc2)C1 (centres undefined)
-3%,Cn1ccnc1C(=O)N1CCC2(CC1)CC(N(Cc1ccccc1)C1CC1)CCO2 (centres undefined)
-10%,COCc1nnc2n1CCC(NC(=O)c1ccoc1)CC2 (centres undefined)
-8%,COc1cccc(CN2C[C@@H]3C(=O)N(CCN4CCc5ccccc5C4)C(=O)[C@@H]3C2)c1
2%,O=C1NC(C(=O)Nc2ccccc2F)Cn2cccc21 (centres undefined)
-23%[70.6 µM],O[C@H]1CC[C@@H](Cc2cc(-c3ccc(F)cc3)on2)O[C@@H]1CNC1CCNCC1
-7%,COc1ccc(CNC(=O)Cn2c(-c3ccc(F)cc3)nc(C)cc2=O)cc1OC
5%,O=C(Nc1ccc(F)cc1F)N1CCC(CCNC(=O)C2(c3ccccc3)CC2)CC1
-11%,CN1C(=O)c2cccn2CC1CNC(=O)c1ccccc1 (centres undefined)
-1%[70.6 µM],Cn1ccnc1CN[C@@H]1C[C@H](CO)[C@@H](O)[C@H]1O
1%,O=C(CCn1ccc(=O)[nH]c1=O)N1CCC(c2[nH]ncc2-c2ccccc2)CC1
3%,COc1ccc(CCN2CC(NC(=O)c3csc(C)n3)CC2=O)cc1 (centres undefined)
-3%,O=C(Cn1cccc1-c1nc(-c2ccc(F)cc2)no1)Nc1ccc(Cl)cc1
0%,COCCC1(NC(=O)C2CCOCC2)CCN(C(=O)c2cccnc2C)CC1
-1%,O=C(Cc1ccccc1O)NCc1cccnc1Oc1ccc(F)cc1F
-1%[70.6 µM],O=c1ncn(Cc2ccccc2)c2ccc(-c3ccsc3)nc12
9%,COc1ccc(-c2nc(-c3nnn4c3COC(c3ccc(C)cc3)C4)no2)cn1 (centres undefined)
-3%[70.6 µM],COc1ccc(-c2cc(-c3cn[nH]c3)c3cncn3c2)cn1
0%,O=C(NC[C@H]1O[C@@H](CO)[C@@H](O)[C@H]1N1CCN(c2cccc(C(F)(F)F)c2)CC1)c1ccc(C(F)(F)F)cc1
-18%,O=C(Cn1ccn2nc3c(c2c1=O)CCCC3)Nc1ccc(C(F)(F)F)cc1
-6%,CCOc1cc(=O)n2c(c1C(=O)Nc1cc(F)cc(F)c1)CCCC2
4%,CNC(=O)CC1COCCN1C(=O)CCCc1nc(-c2cccc(C)c2)no1 (centres undefined)
9%,N[C@@H](Cc1cnc[nH]1)C(=O)N1CCC2(CC1)CC(=O)N(Cc1ccccc1)C2
6%,CC(C)CCNC(=O)C1CCCN(Cc2cccnc2)CCC(=O)NCC1 (centres undefined)
-4%,C=CCOC(=O)C1=C(C)N(Cc2cccc(Cl)c2)C(=O)CC1c1ccccc1Cl (centres undefined)
-21%,O=C(COc1ccccc1)N1CCN(C(=O)c2nnn3c2COC(c2ccccc2)C3)CC1 (centres undefined)
-2%,COc1ccccc1CCC(=O)Nc1cccn2nc(C(C)C)nc12
-4%,Cc1cnc(CC2CCN(C(=O)NC(C)C)C2)n1C(C)C (centres undefined)
-14%[70.6 µM],COCCN1C(=O)[C@@H]2C[C@@H](CN2Cc2cccc(OC)c2)Oc2ccccc21
5%&11%,CCOc1ccccc1CN1CCC2(CCN(C(=O)Cc3ccccn3)CC2)Oc2ccccc21
4%,CCC(O)c1cc2n(n1)CCN(Cc1nccn1Cc1ccccc1)C2 (centres undefined)
-1%,CN(C(=O)c1ccc2c(c1)OCO2)C1CCc2nn(CC3CC3)c(=O)n2CC1 (centres undefined)
-3%,CC(=O)N1CCC(Cc2nc(-c3ccccc3)n[nH]2)CC1

# Random excerpt: 3 records from the list, in no set order.
NPR1 antag,structure
-14%[70.6 µM],COCCN1C(=O)[C@@H]2C[C@@H](CN2Cc2cccc(OC)c2)Oc2ccccc21
-1%[70.6 µM],Cn1ccnc1CN[C@@H]1C[C@H](CO)[C@@H](O)[C@H]1O
3%,COc1ccc(CCN2CC(NC(=O)c3csc(C)n3)CC2=O)cc1 (centres undefined)

# Reformatted comma-delimited: entries from further up
Structure,NPR1 antag
O=c1ncn(Cc2ccccc2)c2ccc(-c3ccsc3)nc12,-1%[70.6 µM]
COc1ccc(-c2nc(-c3nnn4c3COC(c3ccc(C)cc3)C4)no2)cn1 (centres undefined),9%

# Additional results follow:
NPR1 antag,structure
0%,Cc1noc(C)c1CC(=O)N1CCC2(CC1)N(CC1CC1)C(=O)CS2=O (centres undefined)
-5%,O=C1NCCCCCN(CC2CCCCC2)[C@H]2CCC[C@@H]12
0%,CCc1ccc(CN2CCCC(c3nnc(Cn4ccnc4)n3C)C2)nc1 (centres undefined)
-19%,Cc1ccc(OCc2nc(C3CN(C(=O)c4cc5ccccc5[nH]4)C3)no2)cc1
-23%[70.6 µM],c1ccc(-c2cc(CC3(NCc4ccncc4)COC3)no2)cc1
2%,CCNc1ncnc2sc3c(c12)CCN(C(=O)c1ccncc1)C3
3%[70.6 µM],COc1ccc(S(=O)(=O)N2CCOC[C@H](Oc3cnccn3)C2)cc1
5%,CCOc1ccccc1-c1noc(-c2ncn3c2COC(c2ccc(OC)cc2)C3)n1 (centres undefined)
2%,CN1Cc2ncnc(NCc3cccnc3)c2CN(c2ccccc2)C1=O
3%,Cc1ncc2c(n1)CCCN(CC(=O)NC1CCCCCC1)C2=O
4%,Cc1ccc(CNC(=O)C2CCN(C(=O)c3ncn4c3COC(c3ccc(F)cc3)C4)CC2)cc1 (centres undefined)
?,CCOC(=O)c1ccc(CNC(=O)N2CCC3(CC2)CC(OCC)CCO3)cc1 (centres undefined)
-21%,Cc1cc(=O)n(CC(=O)Nc2ccc(F)cc2)c(-c2ccc(F)cc2)n1
?,COc1ccc(-c2cnc3[nH]cc(CC(=O)N4CCCC4)c3c2)cc1
5%[70.6 µM],COCCOCC1(CNC(=O)COc2ccccc2)C[C@@H](O)[C@@H](O)C1 (some centres undefined)
1%[70.6 µM],O=C(O)Cn1ccc2cc(OCc3cccc(-c4ccncc4)c3)cnc21
-1%,COc1ccc(C(=O)Nc2cccc(-c3nnc4n3CCCC4)c2)cc1OC
0%,C=CCSC(C)C(=O)N1CCCn2nc(C(=O)OC)cc2C1 (centres undefined)
-3%,COCc1nc(C2CCN(C(=O)C3CCOCC3)C2)no1 (centres undefined)
-1%,COCCC1(NC(=O)CCc2ccc(OC)cc2)CCN(C2CCOCC2)CC1
-10%,COC[C@@H]1CN(C(=O)c2ccc3ccccc3n2)C[C@H]1c1ccncc1
-3%,Cc1ccccc1-c1noc(CNCc2nc3ccc(Cl)cc3[nH]2)n1
3%,CC(C)NC(=O)O[C@@H]1CC[C@]2(C)C(CC[C@@H](O)[C@H]2CC(=O)NCc2ccccc2)[C@]1(C)CO (some centres undefined)
3%,CN1Cc2cccn2CC1CNC(=O)c1cccc(F)c1 (centres undefined)
-18%,CS(=O)(=O)Nc1ccc(C2(C(=O)NCc3ccccc3Cl)CCCCC2)cc1
5%,O=C1CCN(C(=O)Nc2ccccc2F)CCCC(c2nc(-c3cccnc3)no2)CCN1 (centres undefined)
?,O=C([C@@H]1C[C@H](F)CN1S(=O)(=O)Cc1cccc(Cl)c1)N1CCc2ccccc2C1
-2%,Cc1ccc(S(=O)(=O)Nc2ccc(C)n(CC(=O)NC(C)c3ccccc3)c2=O)cc1 (centres undefined)
2%,O=C(NC1CCN(c2cc(C(F)(F)F)ncn2)CC1)c1ccco1
-19%,Cc1ccc(C)c(-n2nc(-c3c(C)nc4scc(CC(=O)NCc5ccco5)n4c3=O)cc2C)c1
2%,O=C(CCC(F)(F)F)NC1CC(=O)N(CCCc2ccccc2)C1 (centres undefined)
1%[70.6 µM],CC(=O)N1CCC(NC[C@@H]2C=C(C)[C@H](Cc3nc4ccncc4[nH]3)C[C@H]2C(C)C)CC1
-8%[70.6 µM],O=C(NC[C@H]1OC[C@@H](NCc2ccccc2O)[C@@H]1O)c1cccs1
-30%,CCOc1ccc(CC(=O)NC2CCN(c3cc(-c4ccc(Cl)cc4)[nH]n3)CC2)cc1OCC
-13%[70.6 µM],COCCn1cnc2ccc(Nc3ccc(C(F)(F)F)cc3)nc2c1=O
8%[70.6 µM],CC1(C(=O)NCCCn2ccnc2)COCc2cnc(Nc3ccccc3)nc21 (centres undefined)
-3%,COc1ccc(OC)c2nc(-c3cccc(Cl)c3)c(CN3CCCC(O)C3)cc12 (centres undefined)
-9%,COc1ccccc1C(=O)N1CCc2cn(C)c3cccc(c23)C1
-2%,COc1cccc(CCc2ccccc2C(=O)N2CC[C@](C)(O)[C@H](C)C2)c1
2%,COC[C@@H]1CN(C(=O)c2cc(C)oc2C)C[C@H]1c1nc(C)no1
0%,Cc1ccc(-n2c(C3CCN(C(=O)c4ccc5c(c4)OCO5)CC3)n[nH]c2=O)cc1
-3%,Cc1[nH]ncc1CNC(=O)C1CCCCC(=O)N1Cc1ccccc1 (centres undefined)
5%,CC(=O)N1CC2(Cc3ccccc31)CN(C(=O)Cc1cccc(Cl)c1)C2
6%[70.6 µM],COCC(=O)N1CCN2C(=O)N(Cc3ccccc3)C(=O)[C@H]2C1
-22%[70.6 µM],O=C(Nc1ccc(Cl)cc1)N1Cc2[nH]cnc2C[C@H]1c1nc(-c2ccccc2)no1
-27%,CCc1nn(-c2ccc(F)cc2)c(Oc2ccccc2)c1CCC(=O)N1CCCC1
-3%,COCCN1CC(CO)C2(CCN(Cc3ccc(Cl)c(F)c3)CC2)C1 (centres undefined)
-11%,Cc1sc2cc(C(=O)NCC3CC3)[nH]c2c1CN1CCCCC1
2%[70.6 µM],CC(C)C[C@@H]1N[C@H](C(=O)N2CCCC2)Cc2cn(Cc3nccn3C)c3cccc1c23
-1%,Cc1cc(N2CCC3(CCCN(CC4CCC4)C3=O)C2)nc2ccccc12 (centres undefined)

# Some of these compounds in order of the NPR1 antag value, largest number first.
NPR1 antag,structure
6%,CC(C)CCNC(=O)C1CCCN(Cc2cccnc2)CCC(=O)NCC1 (centres undefined)
2%,O=C1NC(C(=O)Nc2ccccc2F)Cn2cccc21 (centres undefined)
-2%,CC(=O)NCCNC(=O)[C@@H]1Cc2cn(Cc3c(C)noc3C)c3cccc(c23)[C@H](CC(C)C)N1

# An excerpt from above in order of length of the SMILES, smallest number first:
NPR1 antag,structure
2%,CCNc1ncnc2sc3c(c12)CCN(C(=O)c1ccncc1)C3
4%,CCC(O)c1cc2n(n1)CCN(Cc1nccn1Cc1ccccc1)C2 (centres undefined)
-13%[70.6 µM],COCCn1cnc2ccc(Nc3ccc(C(F)(F)F)cc3)nc2c1=O
-3%,COCCN1CC(CO)C2(CCN(Cc3ccc(Cl)c(F)c3)CC2)C1 (centres undefined)
-1%[70.6 µM],Cn1ccnc1CN[C@@H]1C[C@H](CO)[C@@H](O)[C@H]1O
-3%,COc1ccc(OC)c2nc(-c3cccc(Cl)c3)c(CN3CCCC(O)C3)cc12 (centres undefined)
5%&11%,CCOc1ccccc1CN1CCC2(CCN(C(=O)Cc3ccccn3)CC2)Oc2ccccc21

# (listing goes on)
NPR1 antag,structure
6%[70.6 µM],CC(C)NC(=O)N[C@H]1CCN2C(=O)c3cc(-c4ccccc4)ccc3NC(=O)[C@H]12
-2%,CCC[C@H](N)C(=O)N1CCC(c2cc(N3CCOCC3)nc(C)n2)CC1
2%,COCCN1C(=O)c2cccn2CC1CNC(=O)c1nccc2ccccc12 (centres undefined)
-4%,CN(C)c1ccc(-c2ccnc(N[C@H]3CO[C@H]4[C@@H]3OC[C@H]4OC(=O)NCc3ccccc3)n2)cc1
1%,CC1CCN(C(=O)[C@H]2CCC[C@H]2NC(=O)c2ccncc2)CC1
7%,CNC(=O)[C@@H]1CN(C(=O)c2ccncc2)C[C@H]1CO
-1%,Cc1nc(-c2cn(C3CCCN(C(=O)c4ccc(F)cc4)C3)nn2)no1 (centres undefined)
-4%[70.6 µM],Cc1[nH]cnc1CN1CCc2nc(C(=O)Nc3cccc(C(F)(F)F)c3)oc2CC1
-2%,COc1ccc(C(=O)N[C@@H]2CN(Cc3cccnc3)C[C@H]2CN(C)C)cc1OC
-3%,CCN1C(=O)CCN(Cc2ccc(C#N)cc2)CC12CCOCC2
